Compound activity from PubChem BioAssay.
CDC25B-CDK2 inh: primary biochemical HTRF screen for blockers of M-phase inducer phosphatase 2 binding to CDK2/cyclin A; HTRF CDC25B-CDK2/CyclinA binding, anti-His/anti-Flag; stronger effect = higher value; z-score (no concentration beside the values); 0.72% of 94,000 active; AID 1259370, 2018;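 further: score is relative to mean and SD of negative controls; strong numbers were not always called active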
HIV TAR-Tat: TAR RNA-Tat peptide displacers, HIV-1, primary screen, biochemical, FRET, FAM/TAMRA-labeled Tat | HIV-1 TAR RNA, Tat peptide displacement FRET; stronger effect = higher value | z-score (test concentration not listed) | 0.6% of 100,000 active | AID 1259389, 2018;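 further: score is relative to mean and SD of negative controls; some compounds called inactive have numbers as strong as hits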
Numbers without * were called inactive; . = not tested or not shown.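 How the source made its calls: active means z-score from 3 up in half or more of its runs; inactive means the rest.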

Results follow in this order: HIV TAR-Tat, CDC25B-CDK2 inh
COc1ccc(-c2onc(C)c2C)cc1S(=O)(=O)Nc1ccc(C)cc1Br
→ 1.3, .
O=C(CN1C(=O)COc2ccc(Cl)cc21)Nc1ccc2c(c1)OCCO2
→ 0.93, -1.1
O=[N+]([O-])c1ccc(Sc2nnc(COc3ccccc3)n2-c2ccccc2)nc1
→ ., -0.13
Cn1ncc2c(NCc3ccccc3Cl)nc(N3CCC(N4CCCCC4)CC3)nc21
→ 0.43, .
O=C(O)C1CCCN1C(=O)Nc1ccccc1Cl (stereo not drawn)
→ -0.45, -1.1
C=C1CCC2C(CC2(C)C)C(=C)CC/C1=N/O (stereo not drawn)
→ 2.2, .
O=[N+]([O-])c1ccc(/C=C/c2ccc([N+](=O)[O-])cc2S(=O)(=O)O)c(S(=O)(=O)O)c1
→ ., -0.04
COC(=O)c1sc2cccc(F)c2c1S(=O)(=O)Nc1ccc(OC)c(OC)c1
→ 0.49, .
Cc1nc(-c2cc(S(=O)(=O)N3CCc4ccccc4C3)c(C)n2C)sc1C(=O)N1CCCC1
→ 1.8, .
Cc1ccc2c(c1)NC(SCC(=O)NC1CCCC1)=NS2(=O)=O
→ 0.92, .
CC(C)NC(=O)C1CCN(c2ncnc3c2nc2n3CCCCC2)CC1
→ -0.7, .
CCN(CC)C(=O)Cn1c(=O)oc2ccccc21
→ 0.78, -1.7
Cn1cccc1-c1cc2n(n1)CCC(=O)N2CCCC(=O)NC1CCCc2ccccc21 (stereo not drawn)
→ -0.59, .
COc1ccc(-c2cc3ncc4c(n3n2)-c2ccccc2OC4)cc1
→ 1.4, -2.8
CC1(C(=O)NC2CCCC2)Cn2c(ccc2-c2ccco2)C(=O)N1CCN1CCOCC1 (stereo not drawn)
→ 2.3, .

Results follow in this order: HIV TAR-Tat, CDC25B-CDK2 inh
CCCCNC(=O)c1sc(-n2cccc2)nc1C
→ 2.3, -0.98
CCOc1cc(C2Nc3ccccc3NC3=C2C(=O)CC(c2ccccc2)C3)ccc1O (stereo not drawn)
→ -4.6, -3.1
CCOC(=O)c1c(C)[nH]c(C)c1S(=O)(=O)Nc1cc(C)ccn1
→ 1.5, .
Cc1cccc(CN2CCN(C(c3ccccc3)c3ccc(Cl)cc3)CC2)c1 (stereo not drawn)
→ 0.31, .
Cn1c(=O)c(=O)n(C)c2cc(S(=O)(=O)CCC(=O)N3CCSc4ccccc43)ccc21
→ 0.76, .
O=C(CCCn1c(=O)[nH]c2ccsc2c1=O)N1CCCCC1
→ ., 0.27
Cc1oc(-c2cccs2)nc1Cn1nc(C)c2c(C)onc2c1=O
→ 0.76, .
Cc1cc(C)n2nc(-c3cccnc3)nc2n1
→ 1, -1.4
CCCCOc1cccc(C(=O)NC(=S)Nc2ccc(-c3nc4ccccc4o3)c(O)c2)c1
→ ., 0.08
CN1C(=O)c2ccccc2Sc2cc(NC(=O)c3cccs3)ccc21
→ 1.2, .
CC1(C)Cc2ccccc2C(NC(=O)Nc2ccccc2F)=C1C#N
→ 2.2, -2.1
CCc1cccc(NS(=O)(=O)c2cc(-c3onc(C)c3C)ccc2C)c1
→ 1.7, .
Cc1ccc(S(=O)(=O)Nc2cc3c(cc2C)n(C)c(=O)n3C)cc1
→ 0.25, .
CC(=O)N1CCCSc2ccc(S(=O)(=O)Nc3ccc4c(c3)OCCO4)cc21
→ 0.91, .
O=C(c1cnn2c(C(F)(F)F)cc(-c3ccco3)nc12)N1CCCC1c1ccc(Cl)cc1 (stereo not drawn)
→ -9.4, -0.05

Results follow in this order: HIV TAR-Tat, CDC25B-CDK2 inh
COc1ccc(C2C(C(=O)OC(C)C)=C(C)NC3=C2C(=O)CC(C)(C)C3)cc1Br (stereo not drawn)
→ 0.19, -0.95
C[C@]12CC=CCC1CCC1C2CC[C@](C)(C(=O)O)C1/C=C1/Nc2ccccc2C1=O (stereo partly drawn)
→ ., -1.4
CCCCN1C2=NCCN2c2ccccc21
→ 0.47, 0.02
COc1ccc(Nc2c(-c3ccco3)nc3cccc(C)n23)cc1
→ ., -0.94
CCOc1ccccc1-c1noc(CSc2nnc(-c3ccc(Cl)cc3)n2CC)n1
→ -0.22, 1
Cc1cn2c(=O)cc(CSCC(=O)Nc3ccc(Cl)cc3)nc2s1
→ 0.74, .
O=c1c(-c2ccc(Cl)cc2)c(N2CCCCC2)c1=O
→ 0.34, .
O=C(Cn1cnc(S(=O)(=O)N2CCCC2)c1)N1CCN(Cc2ccc3c(c2)OCO3)CC1
→ 1.1, .
COCCN1C(=O)c2oc3ccc(C)cc3c(=O)c2C1c1ccc(C(=O)OC)cc1 (stereo not drawn)
→ 0.05, -1
CSc1ccccc1NC(=O)CSc1nc2ccccc2s1
→ 1.7, -1.5
CC1=C(c2ccccc2)S(=O)(=O)NC1=NCC(C)c1ccccc1 (stereo not drawn)
→ -0.36, -5.2
COCCCNC(=O)C(C)n1sc2ccccc2c1=O (stereo not drawn)
→ 1.8, -2
CS(=O)(=O)CCC(C(=O)Nc1ccc2c(c1)OCCO2)N1Cc2ccccc2C1=O (stereo not drawn)
→ -1, .
O=C(CCc1nc(-c2cccs2)no1)NC1CCCC1
→ 1.4, 1
N#Cc1c2c(c(=O)n3c1[nH]c1ccccc13)CCC2
→ ., -0.79

Results follow in this order: HIV TAR-Tat, CDC25B-CDK2 inh
COc1ccc2c(c1)[nH]c1c(=O)n(CCCN3CCCC3)cnc12
→ 2.2, -0.41
Cc1noc(/C=C/c2cccs2)c1S(=O)(=O)N1CCCC(C(=O)Nc2ccccn2)C1 (stereo not drawn)
→ 2.3, -0.82
Cc1ccc(Nc2nc(N3CCN(CCO)CC3)nc3c2cnn3C)c(C)c1
→ 1.6, .
CCN1CCN(CCNC(=O)C2CCN(c3nnc(N4CCCCC4=O)s3)CC2)CC1
→ 1.6, .
c1ccc(N2CCN(Cc3csc4c3CCCC4)CC2)nc1
→ 0.07, .
Cc1cc2c(cc3c(=O)n(CCCC(=O)NCCC(C)C)nc(C)n32)o1
→ -0.34, -1.6
N#Cc1cccn1Cc1ccccc1F
→ 1.1, .
Cc1cccc(C(=O)Nc2cnc3sccn3c2=O)c1
→ 0.11, -0.8
CS(=O)(=O)Nc1ccc(C2=NN(C(=O)CCCC(=O)O)C(c3ccccc3F)C2)cc1 (stereo not drawn)
→ -0.43, -0.46
CCC(C(=O)NC1CCC(C)CC1)n1c(C)c2cnn(-c3ccccc3)c(=O)c2c1C (stereo not drawn)
→ -1.1, -0.58
CN1CCN(c2nc(Nc3cccc(Cl)c3)c3cnn(C)c3n2)CC1
→ -0.97, .
CC(=O)Nc1ccc(C2C3=C(CC(C)(C)CC3=O)Nc3[nH]c(=O)[nH]c(=O)c32)cc1 (stereo not drawn)
→ 1.5, -1.5
Cc1ccc2c(C)nc(Nc3nc(O)c(C)c(=O)[nH]3)nc2c1
→ ., -1.4
O=c1c2nccnc2nc(SCc2cccc(F)c2)n1Cc1ccc(F)cc1
→ 1.9, .
CC1=C(C(=O)OCCOC(C)C)C(c2ccccn2)C2=C(CC(C)(C)CC2=O)N1 (stereo not drawn)
→ 1.2, -1.3

An excerpt of these results, as tab-separated lines.
structure	HIV TAR-Tat	CDC25B-CDK2 inh
N#Cc1cccn1Cc1ccccc1F	1.1	.
Cc1noc(/C=C/c2cccs2)c1S(=O)(=O)N1CCCC(C(=O)Nc2ccccn2)C1 (stereo not drawn)	2.3	-0.82

The list continues:
Results follow in this order: HIV TAR-Tat, CDC25B-CDK2 inh
O=C(O)Cn1c(=S)sc2ccccc21
→ ., -0.55
CCC(C)N(CCCNC(=O)c1sc2nc3n(c(=O)c2c1C)CCCCC3)Cc1ccco1 (stereo not drawn)
→ 1.8, .
Cn1ccc2cc(S(=O)(=O)N3CCCC(C(=O)NCc4cccs4)C3)ccc21 (stereo not drawn)
→ 0.43, .
Cc1ccc(C(=O)c2cnc3ccccc3c2N2CCCC2)cc1
→ 0.85, 0.12
O=C(O/N=C/c1ccc2c(c1)OCO2)C1c2ccccc2Oc2ccccc21
→ ., -1.4
Cc1ccc(C)c(NS(=O)(=O)c2cc(-c3cnc(C4CC4)o3)ccc2C)c1
→ 1.9, .
O=C(c1nc(-c2ccc(Cl)cc2)n2c1CCCCC2)N1CCC(N2CCCCC2)CC1
→ -0.07, .
O=C(c1cccs1)n1nccc1/C=C/c1c(Cl)cccc1Cl
→ ., -1.3
Cc1c(-c2nsc(NC(=O)c3ccco3)n2)nnn1-c1ccc(F)c(Cl)c1
→ 0.07, -2.2
CC1Sc2ccc(S(=O)(=O)N3CCn4c3nc3ccccc34)cc2NC1=O (stereo not drawn)
→ 1.9, .
O=C(Cn1ncc2c([nH]c3ccccc32)c1=O)NCCc1ccsc1
→ 1.2, .
O=C(NC1CCCC1)C1c2cc(Br)ccc2OCC(=O)N1C1CCCC1 (stereo not drawn)
→ 1.3, .
Cc1ccc(CNc2ncnc3onc(-c4cc(F)cc(F)c4)c23)cc1
→ 0.61, .
COc1ccc(C2=NS(=O)(=O)N(C)C(C(=O)N3CCN(C)CC3)=C2)cc1
→ 2.4, -1.9
S=C(NCCc1ccncc1)Nc1cc(Cl)ccc1Cl
→ ., -2

Results follow in this order: HIV TAR-Tat, CDC25B-CDK2 inh
COc1ccccc1Nc1ncnc2c1cnn2-c1ccc(Cl)cc1
→ -1.6, .
CCCN1CCN(c2ncc3c(n2)CCN(Cc2ccc(OCC)c(OCC)c2)C3)CC1
→ 1.1, .
Cc1nc(-c2ccccc2)sc1C(=O)Nc1sc(C)c(C)c1C#N
→ -4.2, -1.2
O=C(O)C1C2C=CC(C2)C1C(=O)Nc1cccnc1 (stereo not drawn)
→ -0.88, -1.9
CC(C)c1ccc(C(=O)CC2(O)C(=O)N(C)c3ccc(Br)cc32)cc1 (stereo not drawn)
→ ., -1.5
Cc1ccc(S(=O)(=O)N2CCCC(c3nc(-c4ccc5c(c4)OCO5)no3)C2)cc1 (stereo not drawn)
→ 2.1, .
O=C(NC1CCCCC1)N1CCC(N2CCN(Cc3ccccn3)C(=O)C2=O)CC1
→ 1.7, .
CC(=O)NCc1c(I)c(NC(C)=O)c(I)c(C(=O)O)c1I
→ -1.7, .
CN1CCC(O)(C2CCN3Cc4ccccc4N=C23)CC1 (stereo not drawn)
→ 1.1, .
O=C(CSC1=NC(c2ccccc2)=NCN1c1ccccc1)Nc1ccc2c(c1)OCO2
→ -5, -1.1
O=C(Nc1ccccc1)NC1(C(F)(F)F)Oc2ccc(Cl)cc2O1 (stereo not drawn)
→ ., -0.31
CCCc1cc(=O)n2nc(N(C)CC(=O)N3CCN(C4CCCCC4)CC3)sc2n1
→ 1.1, -1
O=C(NCc1ccc2c(c1)OCO2)c1ccc2c(=O)n3c(nc2c1)CCCCC3
→ 1.7, -0.55
CCCNc1cc(C)nc2nc(-c3ccc(C)cc3)nn12
→ 2.7, -2.2
Cc1ccccc1-n1nc2oc3ccc(Cl)cc3cc-2c1=O
→ -0.09, -1.8

Single records, from the list above. Values in the order: HIV TAR-Tat	CDC25B-CDK2 inh
Entry for `CCCc1cc(=O)n2nc(N(C)CC(=O)N3CCN(C4CCCCC4)CC3)sc2n1` = 1.1	-1
Entry for `O=C(NC1CCCCC1)N1CCC(N2CCN(Cc3ccccn3)C(=O)C2=O)CC1` = 1.7	.
Entry for `CC(=O)NCc1c(I)c(NC(C)=O)c(I)c(C(=O)O)c1I` = -1.7	.
Entry for `COc1ccccc1Nc1ncnc2c1cnn2-c1ccc(Cl)cc1` = -1.6	.
Entry for `CN1CCC(O)(C2CCN3Cc4ccccc4N=C23)CC1` (stereo not drawn) = 1.1	.

Following part
Results follow in this order: HIV TAR-Tat, CDC25B-CDK2 inh
Cc1ccc(-c2c(N3CCOCC3)c(=O)c2=O)cc1
→ 1.2, .
COc1cccc(-c2cc(C#N)on2)c1OC
→ -1.3, -2.3
COCc1cc(C)nc2sc3c(c12)NCN(C(C)(C)C)C3=O
→ 2.4, -2.9
Cc1cccc(NS(=O)(=O)c2ccc(-c3cnc(C)o3)cc2)c1
→ 1.7, .
COc1ccc(CN=Cc2ccc(NC(C)=O)cc2)cc1
→ ., -0.33
Cc1ccc2[nH]c3c(=O)n(CC(C)c4ccccc4)cnc3c2c1 (stereo not drawn)
→ 0.16, 0.68
Cc1cccc(C)c1OCc1cc(=O)n2nc(-c3ccco3)sc2n1
→ 37*, 1.9
COc1ccc(OC)c(NC(=O)N2CCN(c3cc(N4CCOCC4)nc(C)n3)CC2)c1
→ 0.03, -0.43
Fc1c(F)c2c(c(F)c1Br)Oc1ccccc1O2
→ ., -0.88
Cc1cc(NC(=O)c2csnn2)no1
→ 1.2, -0.36
Cc1cccc(-c2nc(CSc3nc4ccncc4[nH]3)c(C)o2)c1
→ -1.4, -0.71
COc1ccc(-c2cc(C(F)(F)F)nc(NCc3ccccc3)n2)cc1
→ ., 0.73
COc1cc(Nc2c(-c3ccc4c(c3)CCCC4)c(=O)c2=O)cc(OC)c1
→ 0.48, .
S=C(CC1CCCCCCCCCCC1)N1CCOCC1
→ ., 0.15
O=S(=O)(Nc1cccc(-c2ccc(N3CCOCC3)nn2)c1)c1ccccc1
→ 0.73, .

Results follow in this order: HIV TAR-Tat, CDC25B-CDK2 inh
O=C(c1ccc2c(c1)OCO2)N1CCN(Cc2ccc3c(c2)OCO3)CC1
→ 1, -0.81
Cc1ccc(-c2c(N(C)c3ccc(C)cc3)c(=O)c2=O)cc1
→ 1.7, .
Cc1ccc2c(c1)N(CC(=O)NCc1ccco1)C(=O)CO2
→ ., -0.67
Cn1cc(NC(=O)Nc2ccccn2)c2ccccc2c1=O
→ 1.3, .
CN(C)C(=O)c1c(NC(=O)c2ccccc2)sc2c1CCCC2
→ 0.53, -1.2
CC(=O)Nc1nonc1-c1nnc(SCc2ccc(Cl)cc2)n1C
→ -1.3, -2.7
COc1ccccc1-n1c(=S)sc2c(=O)n(Cc3ccco3)c(SC)nc21
→ 1.2, .
C#CC(C)(C)N1CNC(=S)NC1
→ ., -1.4
O=C1OC(N2CCOCC2)c2ccccc21 (stereo not drawn)
→ -0.32, 1.1
C1CCN2C[C@@H]3C[C@@H](CN4CCCC[C@@H]34)[C@H]2C1
→ 1.1, .
